ugtP null kill = compounds lethal to S. aureus RN4220 ugtP deletion mutant; OD600 growth, 16 h; some inactives read as strong as hits; growth inhibition, % (test concentration not listed); 330,000 compounds, 0.54% hits; AID 1259309;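 active means z-score under -3 and OD600 up to 0.15 on both plates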;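 further: plate controls were untreated wells for no effect and antibiotic for full effect; wells of about 80 µL received 100 nL stock; the first replicate is given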
BJeLR viability = kills HRASV12-expressing BJeLR cells; BJeLR (HRASV12) viability, CellTiter-Glo ATP luminescence, 48 h; reference of the scale not given here; inhibition, % (test concentration not listed); 300,000 compounds, 0.17% hits; AID 1554;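 active means replicate mean above 50%; inconclusive means above 50% but judged a plate artefact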;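 further: 50 nL library stock added to about 25 µL; numbers are from one replicate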
Autofluor counter = flagged as autofluorescent in microsphere protease counterscreen. compound autofluorescence counterscreen, microsphere flow cytometry; stronger effect = higher value. fluorescence intensity (test concentration not listed). 360,000 compounds, 3.1% hits;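 active means at least 3 SD above the mean of all compounds, about 16000 in these data; inconclusive means too few beads counted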;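 further: 100 nL of 1 mM stock went into each well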
Mtb hypoxia rep = reduces hypoxia-regulated biosensor signal in M. tuberculosis | M. tuberculosis hypoxia-regulated fluorescent reporter, fluorescence | 300,000 compounds, 0.1% hits | AID 1159583 | fluorescence inhibition, % (no concentration beside the values);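 active means 35 to 45% if threefold the growth effect, above 45% if 1.5-fold the growth effect; inactive means the rest, general growth blockers included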;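 further: wells of about 50 µL received 100 nL stock; 0% = vehicle wells and 100% = reference inhibitor wells; whole bacteria with a GFP reporter of the hypoxia response; strong numbers were not always called active; many hits fall short of the cut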
PrP 5UTR inh = suppresses PrP 5' UTR mRNA reporter expression. cell-based PrP 5' UTR mRNA reporter, plate reader. inhibition, % (no concentration beside the values). 340,000 compounds, 0.35% hits. AID 488862;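 active means every replicate at 50% or more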;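 further: 0 = median of the neutral control wells; tested in H4 reporter cells; numbers are from one replicate; inactives centre near -14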
Sa RN4220 lethal = S. aureus RN4220 growth inhibition. 330,000 compounds, 0.33% hits. OD600, 16 h. inhibition, % (test concentration not listed);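 active means z-score of -3 or lower and OD600 up to 0.18 on both plates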;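 further: plate controls were untreated cells for no effect and reference antibiotic for full effect; stock transfer was 100 nL into about 80 µL; one replicate is shown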
Mtb hypoxia rep growth = further read-out of Mtb hypoxia rep, marked with its call; growth inhibition, %; measured here: M. tuberculosis growth (absorbance);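 0% = vehicle and 100% = reference antibiotic; read after six days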
Starred values were filed as active, the others as inactive; ? = inconclusive; · = no result given.

SMILES	ugtP null kill	BJeLR viability	Autofluor counter	Mtb hypoxia rep	Mtb hypoxia rep growth	PrP 5UTR inh	Sa RN4220 lethal
CC(Sc1ccc(S(=O)(=O)N(C)C)cn1)C(=O)NC1CCCC1 (stereo unspecified)	13	·	2677	0	2	-21	5.5
C#Cc1cccc(C(=O)N2CCCC(C(=O)c3ccc(OC)cc3C)C2)c1 (stereo unspecified)	3	-8	5772	10	12	-22	3.2
CCC(NC(=O)C1CCCO1)c1ccccc1 (stereo unspecified)	9	-5	3587	5	15	-23	0.6
CCC(Cc1ccccc1)NC(=O)c1cc(S(=O)(=O)N2CCCCC2)c[nH]1 (stereo unspecified)	10	13	5817	13	10	-13	-2.2
C=CCn1c(SCc2ccccc2)nc2scc(-c3ccc(C)o3)c2c1=O	11	3	9941	3	5	-23	0.7
O=C(COc1ccccc1)Nc1ccccc1Oc1ccccc1	·	6	2218	·	·	-17	·
Cc1ccsc1/C=N/n1c(-c2ccncc2)n[nH]c1=S	·	2	2409	·	·	-8	·
COc1ccc(-n2c(O)c(C=NCc3ccccn3)c3ccccc3c2=O)c(OC)c1	-2	3	4468	12	2	-56	3.4
CCOc1ccc(CN2C(=O)c3ccccc3C2=O)cc1C(=O)NC1CC(C)(C)NC(C)(C)C1	6	·	3609	12	7	85*	5.3
CC(C#N)(CCc1ccccn1)CCc1ccccn1	4	·	4085	9	8	-28	3.3
Cn1c(CNC(=O)c2ccccc2)nnc1SCC(=O)Nc1nccs1	10	7	4608	2	-2	-25	3.2
Cc1ccc(C=NNC(=S)Nc2cccc(S(=O)(=O)N(C)C)c2)o1	1	·	·	12	5	·	9.0
CCOc1cccc(/C=N/NC(=O)c2cc(-c3cccn3C)n[nH]2)c1O	·	10	4263	·	·	8	·
Cc1ccccc1CS(=O)(=O)CC1(O)CCN(C(=O)c2cccc(C(F)(F)F)c2)CC1	4	-8	20093*	1	-4	-12	5.2
COc1ccccc1NC(=O)CSc1nc(SC)ns1	2	2	6189	-5	3	-9	2.0
COc1ccc(C(=O)NCCc2nnc3ccc(SCC(=O)NCCc4ccc(OC)c(OC)c4)nn23)cc1	0	7	4324	-1	9	-1	3.0
O=C(O)COc1ccccc1/C=N/NC(=O)CSc1nc2ccccc2s1	·	14	4503	·	·	-3	·
CC1(C(=O)O)CCC(C(=O)Nc2ccc(F)cc2)C1(C)C (stereo unspecified)	3	-14	3334	10	-3	-14	3.0
CCOC(=O)c1ccc(Oc2nc(OC)nc(N(C)C)n2)cc1	-2	-14	8308	9	7	-24	0.2
COc1cccc(/C=C/C(=O)OCC(=O)Nc2cc(C(F)(F)F)ccc2Cl)c1	-8	-8	2045	-2	0	-8	5.1
Brc1ccc(-c2csc3[n+]2CCCCC3)cc1	-6	-1	4911	-6	1	6	-9.5
Cc1cnc(C(=O)Nc2cccc3ncccc23)cn1	8	-1	2445	·	·	5	1.6
Nc1nc(O)c(Sc2ccccc2[N+](=O)[O-])c(=O)[nH]1	12	-2	5894	1	6	-11	4.2
O=C1CCC(CCC(=O)N2CCCC(C(=O)c3ccc(Cl)cc3)C2)=NN1 (stereo unspecified)	1	-1	·	-5	-10	-12	4.1
O=C(NN=Cc1ccncc1)c1cccc(NN=Cc2ccncc2)c1	7	·	·	-9	5	·	3.2
COc1cc(-c2noc(C)c2C(=O)NCC[C@@H]2CCCN2C)cc(OC)c1OC	-1	·	3660	-12	-2	-2	4.1
COCCCN(C(=O)Nc1ccc(C)c(C)c1)C(C)c1ccccn1 (stereo unspecified)	7	-10	5433	-1	3	-23	2.7
COc1cccc(CNc2ccc(S(=O)(=O)Nc3nccs3)cc2)c1O	15	-2	10131	13	24	-28	6.8
CC(C)CN(CC(C)C)S(=O)(=O)N1CCC(C(=O)NCc2cccnc2)CC1	6	4	4269	4	2	-12	8.2
CN(c1ccccc1)S(=O)(=O)c1cccc(NC(=O)CSc2nncs2)c1	-8	14	2373	5	4	-30	7.8
S=c1[nH]nc(-c2n[nH]c3c2CCC3)n1N=C/C=C/c1ccco1	-12	·	·	9	10	·	9.2
COc1ccc(OC)c(-c2nc3ccccc3nc2-c2ccccc2)c1	20	-4	?	-6	7	-24	-0.6
C=CCn1c(SCC(=O)c2ccc(O)c(O)c2)nnc1-c1ccccc1OC	-4	-5	3153	7	0	-11	7.1
NNC(=O)c1cc(-c2ccccc2)sc1N	·	-3	3930	·	·	4	·
Cn1c(O)c(Cc2cccc(Cl)c2Cl)c(=O)n(C)c1=O	3	4	3872	10	7	-23	2.2
Cc1cccc(C(C)C)c1NC(=O)COC(=O)c1cc2ccccc2oc1=O	3	·	6363	10	7	-26	1.7
COc1ccc(C(=O)OCC#CCSc2nnc(-c3cccc4ccccc34)o2)cc1	13	·	3543	·	·	-21	8.2
CN(CCc1ccccn1)C(=O)CCC1CCCN(C(=O)CCOc2ccccc2)C1 (stereo unspecified)	-1	1	1980	1	3	-7	2.5
COc1ccc(/C=N/NC(=O)c2ccccc2OC)cc1COc1ccccc1[N+](=O)[O-]	·	3	4488	·	·	-8	·
CCN(CC)S(=O)(=O)c1ccc(/C=C/C(=O)OCC(=O)Nc2ccc(S(N)(=O)=O)cc2)cc1	-4	4	9241	-2	3	-8	3.2

3 compounds from above, ordered by length of the SMILES, falling:
SMILES	ugtP null kill	BJeLR viability	Autofluor counter	Mtb hypoxia rep	Mtb hypoxia rep growth	PrP 5UTR inh	Sa RN4220 lethal
CN(c1ccccc1)S(=O)(=O)c1cccc(NC(=O)CSc2nncs2)c1	-8	14	2373	5	4	-30	7.8
S=c1[nH]nc(-c2n[nH]c3c2CCC3)n1N=C/C=C/c1ccco1	-12	·	·	9	10	·	9.2
Cn1c(O)c(Cc2cccc(Cl)c2Cl)c(=O)n(C)c1=O	3	4	3872	10	7	-23	2.2

The list continues:
SMILES	ugtP null kill	BJeLR viability	Autofluor counter	Mtb hypoxia rep	Mtb hypoxia rep growth	PrP 5UTR inh	Sa RN4220 lethal
O=C1NCCC/C1=N\Nc1ccc(Br)cc1	·	7	3220	·	·	-14	·
COc1ccc(CCN(CC(=O)NC(C)(C)C)C(=O)Cn2nnc(-c3ccc(C)o3)n2)cc1OC	4	-10	2161	0	-13	-20	0.0
COCc1ccc(CN2CCCC(CO)(Cc3cccc(Cl)c3)C2)o1 (stereo unspecified)	7	·	3215	-6	0	-20	6.6
COc1ccc(C(=O)OCC(=O)N2C(C)CCCC2C)cc1[N+](=O)[O-] (stereo unspecified)	1	7	4478	5	1	-6	4.1
O=C(c1ccc2c3c(cccc13)CC2)C1CCCN(Cc2cccnc2)C1 (stereo unspecified)	2	-7	5976	7	5	-12	7.5
CC(C)c1nc(SCC(=O)Nc2ccc3c(c2)OCCO3)n[nH]1	3	-5	3286	-9	-3	-10	11
CCOC(=O)C1=C(O)/C(=C/c2cn(CC(=O)N3CCCC3)c3ccccc23)SC1=Nc1ccccc1	-12	-3	9363	5	-2	-3	-2.1
COc1cc(/C=C/C(=O)O)cc(S(=O)(=O)Nc2ccc(F)cc2)c1OC	3	-8	2299	-3	-8	-10	0.8
Cn1c(SCC(=O)NCC2CCCO2)nnc1-c1ccco1 (stereo unspecified)	3	·	4647	6	2	-15	2.6
COc1cccc(-c2nc(CS(=O)(=O)CC(=O)NCC(C)c3ccccc3)c(C)o2)c1 (stereo unspecified)	-13	3	6074	-6	10	-10	-7.2
Cc1ccc(S(=O)(=O)c2ccc(Oc3cccc(C)c3)cc2)cc1	43	4	4312	-1	4	-13	2.1
COc1ccc(NC(=O)C2CCCN(S(=O)(=O)c3ccc4c(c3)CCCN4C(C)=O)C2)cc1Cl (stereo unspecified)	-5	2	5819	0	4	-4	4.3
c1cncc(-c2cn(C[C@H]3CC[C@@H]([C@@H]4CC[C@H](Cn5cc(-c6cccnc6)nn5)O4)O3)nn2)c1	·	-6	3442	·	·	-6	·
Cc1c(N(C(=O)c2cnccn2)C2(C(=O)NC3CCCC3)CCCCC2)c(=O)n(-c2ccccc2)n1C	0	1	3221	8	9	-24	1.2
CCC(=O)NC(=S)Nc1cccc(C(C)=O)c1	0	3	5018	·	·	-10	0.4
COc1cccc(-c2csc(N3CCN(C(=O)NC45CC6CC(CC(C6)C4)C5)CC3)n2)c1	-12	-6	3450	7	17	-28	-16
Nc1ccc(S(=O)(=O)NC2(C(F)(F)F)NC(=O)N(Cc3ccccc3)C2=O)cc1 (stereo unspecified)	6	2	3812	-1	-7	-8	1.7

Structures above with an aryl methoxy group (18):
SMILES	ugtP null kill	BJeLR viability	Autofluor counter	Mtb hypoxia rep	Mtb hypoxia rep growth	PrP 5UTR inh	Sa RN4220 lethal
C#Cc1cccc(C(=O)N2CCCC(C(=O)c3ccc(OC)cc3C)C2)c1 (stereo unspecified)	3	-8	5772	10	12	-22	3.2
COc1ccc(-n2c(O)c(C=NCc3ccccn3)c3ccccc3c2=O)c(OC)c1	-2	3	4468	12	2	-56	3.4
COc1ccccc1NC(=O)CSc1nc(SC)ns1	2	2	6189	-5	3	-9	2.0
COc1ccc(C(=O)NCCc2nnc3ccc(SCC(=O)NCCc4ccc(OC)c(OC)c4)nn23)cc1	0	7	4324	-1	9	-1	3.0
CCOC(=O)c1ccc(Oc2nc(OC)nc(N(C)C)n2)cc1	-2	-14	8308	9	7	-24	0.2
COc1cccc(/C=C/C(=O)OCC(=O)Nc2cc(C(F)(F)F)ccc2Cl)c1	-8	-8	2045	-2	0	-8	5.1
COc1cc(-c2noc(C)c2C(=O)NCC[C@@H]2CCCN2C)cc(OC)c1OC	-1	·	3660	-12	-2	-2	4.1
COc1cccc(CNc2ccc(S(=O)(=O)Nc3nccs3)cc2)c1O	15	-2	10131	13	24	-28	6.8
COc1ccc(OC)c(-c2nc3ccccc3nc2-c2ccccc2)c1	20	-4	?	-6	7	-24	-0.6
C=CCn1c(SCC(=O)c2ccc(O)c(O)c2)nnc1-c1ccccc1OC	-4	-5	3153	7	0	-11	7.1
COc1ccc(C(=O)OCC#CCSc2nnc(-c3cccc4ccccc34)o2)cc1	13	·	3543	·	·	-21	8.2
COc1ccc(/C=N/NC(=O)c2ccccc2OC)cc1COc1ccccc1[N+](=O)[O-]	·	3	4488	·	·	-8	·
COc1ccc(CCN(CC(=O)NC(C)(C)C)C(=O)Cn2nnc(-c3ccc(C)o3)n2)cc1OC	4	-10	2161	0	-13	-20	0.0
COc1ccc(C(=O)OCC(=O)N2C(C)CCCC2C)cc1[N+](=O)[O-] (stereo unspecified)	1	7	4478	5	1	-6	4.1
COc1cc(/C=C/C(=O)O)cc(S(=O)(=O)Nc2ccc(F)cc2)c1OC	3	-8	2299	-3	-8	-10	0.8
COc1cccc(-c2nc(CS(=O)(=O)CC(=O)NCC(C)c3ccccc3)c(C)o2)c1 (stereo unspecified)	-13	3	6074	-6	10	-10	-7.2
COc1ccc(NC(=O)C2CCCN(S(=O)(=O)c3ccc4c(c3)CCCN4C(C)=O)C2)cc1Cl (stereo unspecified)	-5	2	5819	0	4	-4	4.3
COc1cccc(-c2csc(N3CCN(C(=O)NC45CC6CC(CC(C6)C4)C5)CC3)n2)c1	-12	-6	3450	7	17	-28	-16

Screening data deposited in PubChem BioAssay by several laboratories.
